From PubChem BioAssay
Vaccinia stage – blocks a specific stage of Vaccinia orthopoxvirus infection | AID 1053133 | Vaccinia-infected cells, mCherry/Venus stage reporter fluorescence; active compounds read low; some inactives read as strong as hits | hit rate 0.01% among 89,000 | activity change (mCherry), % (no concentration beside the values);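 active = mCherry past -33% and 40 or more points under the early reporter, replicates agreeing; inconclusive = past -33% without that gap or agreement; tested in A549 cells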;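 note: scaled between vehicle wells and reference inhibitor wells; 23 nL library stock went into each well; one replicate is shown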
Vaccinia stage Venus – second read-out of Vaccinia stage, no call of its own (marks repeat the call); activity change (Venus), %; measured here: Venus reporter, other viral stage;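 negative = less Venus signal; first of two replicates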
* hit, by the source's call; ? = inconclusive; / = no result given; & = joins results of further samples. This is a subset; rates above refer to the full screens.

SMILES	Vaccinia stage	Vaccinia stage Venus
C[C@@H]1CN([C@H](C)CO)C(=O)c2cc(C#Cc3cccc(F)c3)cnc2O[C@H]1CN(C)C(=O)c1ccccc1F	?	/
N#Cc1cccc(-c2ccc([C@H]3[C@@H](CO)N4CCCCN(C(=O)Nc5ccc(F)cc5)C[C@@H]34)cc2)c1	-23	-24
C[C@@H]1CCCCO[C@H](CN(C)Cc2ccc(C(=O)O)cc2)[C@H](C)CN([C@@H](C)CO)C(=O)c2cc(NC(=O)C3CCCCC3)ccc2O1	10	-2
CCNC(=O)[C@H]1[C@H](CO)[C@H]2Cn3c(ccc(/C=C/c4ccccc4)c3=O)[C@@H]1N2C(=O)c1ccncc1	12	4
CNC[C@H]1OCCCC[C@@H](C)Oc2ccc(NS(=O)(=O)c3ccccc3)cc2C(=O)N([C@H](C)CO)C[C@@H]1C	1	6
CCC(=O)Nc1ccc2c(c1)OC[C@@H](C)N(Cc1cncnc1)C[C@@H](C)[C@H](OC)CN(C)C2=O	7	6
O=C(C[C@H]1C[C@@H]2c3cc(NC(=O)c4ccc5c(c4)OCO5)ccc3O[C@@H]2[C@H](CO)O1)NCc1cccnc1	-5	-5
COCC(=O)Nc1ccc2c(c1)[C@H]1C[C@@H](CC(=O)NCc3ccccn3)O[C@H](CO)[C@H]1O2	13	8
COc1ccccc1C#Cc1ccc2c(c1)[C@@H]1[C@@H](CCN1C(=O)c1ccc(F)cc1)[C@@H](CO)N2	-4	0
CCC(=O)N1CC2(CCN(Cc3ccc(F)cc3)CC2)c2c(n(C)c3cc(OC)ccc23)[C@@H]1CO	-28	-23
COc1ccccc1-c1ccc2c(c1)O[C@H](CN(C)C(=O)Nc1ccccc1)[C@H](C)CN([C@@H](C)CO)S2(=O)=O	-26	-18
CCCNC(=O)N1CC2(CCN(C(=O)C3CCCCC3)CC2)c2c([nH]c3cc(OC)ccc23)[C@@H]1CO	-4	-10
C[C@@H]1CN([C@@H](C)CO)C(=O)c2cc(NC(=O)Cn3cnnn3)ccc2O[C@H]1CN(C)C(=O)NC1CCCCC1	1	3
C[C@H](CO)N1C[C@H](C)[C@H](CN(C)S(=O)(=O)c2ccccc2F)Oc2cc(C#Cc3cccc(F)c3)ccc2S1(=O)=O	-27	-22
Cc1ccccc1S(=O)(=O)N(C)C[C@H]1OCc2ccccc2-c2ccccc2C(=O)N([C@@H](C)CO)C[C@H]1C	?	/
COc1ccc(S(=O)(=O)Nc2ccc3c(c2)CC(=O)N([C@H](C)CO)C[C@H](C)[C@@H](CN(C)C(=O)Nc2ccc(C(F)(F)F)cc2)O3)cc1	-12	4
C[C@H](CO)N1C[C@H](C)[C@H](CN(C)CC2CCCCC2)Oc2ccc(NC(=O)C3CCCCC3)cc2C1=O	-7	-4
COc1ccc(NC(=O)Nc2cccc3c2O[C@@H](CN(C)CC2CCCCC2)[C@@H](C)CN([C@H](C)CO)C3=O)cc1	-34	-24
COc1ccc2c3c(n(C)c2c1)[C@@H](CO)N(Cc1ccc(Cl)cc1)CC31CCN(CC2CC2)CC1	?	/
C[C@@H]1CN([C@H](C)CO)C(=O)c2cc(NC(=O)Cc3ccccc3)ccc2O[C@@H]1CN(C)Cc1ccc(C(F)(F)F)cc1	?	/
C[C@H]1CN([C@@H](C)CO)S(=O)(=O)c2ccc(C3=CCCCC3)cc2O[C@H]1CN(C)S(=O)(=O)c1ccc(F)cc1	?	/
CCC(=O)N1C[C@H](O)COC[C@@H]2O[C@H](CC(=O)NC)CC[C@H]21	15	7
COc1ccc(NC(=O)N[C@@H]2CC[C@H](CCn3cc(-c4ccccc4)nn3)O[C@@H]2CO)cc1	-2	-5
CCCNC(=O)N1CC2(CCN(C(=O)CC)CC2)c2c(n(C)c3cc(OC)ccc23)[C@H]1CO	16	4
COc1cccc(S(=O)(=O)N[C@@H]2CC[C@H](CCn3cc(-c4ccccn4)nn3)O[C@H]2CO)c1	-5	5
C[C@H]1CN([C@@H](C)CO)S(=O)(=O)c2ccc(Br)cc2O[C@H]1CN(C)CC1CCOCC1	0	-1
O=C(C[C@H]1CC[C@H]2[C@@H](COC[C@H](O)CN2Cc2ccccc2)O1)NCCc1ccccc1	1	-2
COc1ccccc1-c1cnc2c(c1)C(=O)N([C@@H](C)CO)C[C@@H](C)[C@@H](CN(C)Cc1cncnc1)O2	-1	-9
Cc1noc(C)c1NC(=O)Nc1ccc2c(c1)C(=O)N([C@H](C)CO)C[C@H](C)[C@H](CN(C)Cc1ccc(Cl)c(Cl)c1)OCCCC[C@@H](C)O2	-14	-12
COc1cccc(NC(=O)N2[C@@H]3CNC[C@H]2C3c2ccc(-c3cccc(OC)c3)cc2)c1 (stereo partly drawn)	-27&-4	-14&0
Cc1noc(C)c1S(=O)(=O)N(C)C[C@@H]1OCc2ccccc2-c2ccccc2C(=O)N([C@H](C)CO)C[C@H]1C	20	13
C[C@@H]1CN([C@@H](C)CO)C(=O)Cc2cc(NC(=O)CCCCCC(=O)Nc3ccccc3N)ccc2O[C@H]1CN(C)C	31	9
COCC(=O)N1CC(=O)N2[C@@H](CO)[C@H](c3ccc(C#CC4CCCC4)cc3)[C@@H]2C1	2	5
O=C(C[C@H]1C=C[C@@H](NC(=O)c2ccncc2)[C@H](CO)O1)NCc1ccncn1	10	7
Cc1ccc(S(=O)(=O)N(C)C[C@@H]2Oc3ccc(NC(=O)C4CC4)cc3CC(=O)N([C@H](C)CO)C[C@@H]2C)cc1	-15	-12
CCC(=O)N(C)C[C@@H]1Oc2cc(-c3ccc(OC)cc3)ccc2S(=O)(=O)N([C@@H](C)CO)C[C@H]1C	0	0
CCc1nc(N2[C@@H](C#N)[C@H](c3ccccc3-c3ccccc3F)[C@@H]2CO)sc1C	-1	-4
COc1ccccc1NC(=O)N1CC(=O)N2[C@H](CO)[C@@H](c3ccc(C#CC(C)C)cc3)[C@H]2C1	-34	-23
O=C(C[C@@H]1CC[C@H](NC(=O)Cc2ccccn2)[C@@H](CO)O1)NCCCN1CCOCC1	6	1
O=C(C[C@H]1CC[C@@H]2[C@H](COC[C@@H](O)CN2C(=O)Nc2ccccc2)O1)NC1Cc2ccccc2C1	2	1
COc1ccccc1CNC(=O)C[C@@H]1CC[C@@H]2[C@H](COC[C@@H](O)CN2Cc2ccc3c(c2)OCO3)O1	-11	-12
CCC(=O)N1CC2(C1)CN(CC1CCCCC1)[C@@H](CO)c1c2c2ccc(OC)cc2n1C	2	16
Cc1ccc(S(=O)(=O)Nc2cccc3c2O[C@@H](CN(C)S(=O)(=O)c2ccccc2)[C@H](C)CN([C@H](C)CO)C3=O)cc1	9	9
COCC(=O)Nc1ccc2c(c1)[C@H]1C[C@H](CC(=O)NCc3ccccc3F)O[C@@H](CO)[C@H]1O2	-3	-6
C[C@H](CO)N1C[C@H](C)[C@H](CN(C)S(=O)(=O)c2cn(C)cn2)Oc2ccc(NC(=O)Nc3ccc(C(F)(F)F)cc3)cc2C1=O	6	5
Cc1ccc(S(=O)(=O)N(C)C[C@H]2Oc3ccc(NS(=O)(=O)c4ccc(F)cc4)cc3CC(=O)N([C@@H](C)CO)C[C@@H]2C)cc1	2	-4
C[C@H](CO)N1C[C@H](C)[C@H](CN(C)S(=O)(=O)c2cccs2)Oc2ccc(N(C)C)cc2CC1=O	5	-3
C[C@H]1CN([C@@H](C)CO)C(=O)c2cccc(NC(=O)c3ccncc3)c2O[C@@H]1CN(C)S(=O)(=O)c1cccs1	5	-1
C[C@@H]1CN([C@H](C)CO)C(=O)c2cc(C#CC(C)(C)O)cnc2O[C@H]1CN(C)C(=O)CC1CC1	38	17
CC(C)NC(=O)Nc1ccc2c(c1)C(=O)N([C@H](C)CO)C[C@H](C)[C@@H](CN(C)C(=O)NC(C)C)OCCCC[C@H](C)O2	16	5
Next compounds follow.
SMILES	Vaccinia stage	Vaccinia stage Venus
C[C@H]1CN([C@@H](C)CO)C(=O)c2cccc(NC(=O)CCCCCC(=O)Nc3ccccc3N)c2O[C@@H]1CN(C)Cc1ccc(-c2ccccc2)cc1	-4	-5
O=C(C[C@@H]1C=C[C@@H](NC(=O)C2CCOCC2)[C@@H](CO)O1)Nc1ccc(-c2ccccc2)cc1	0	-5
O=[N+]([O-])c1ccccc1S(=O)(=O)N1CCN(Cc2ccc(OCCO)cc2)CC1	-11	-13
CC(=O)N(C)C[C@@H]1OCc2ccccc2-c2ccccc2C(=O)N([C@H](C)CO)C[C@@H]1C	32	17
Cc1ccc(S(=O)(=O)Nc2cccc3c2O[C@@H](CN(C)S(C)(=O)=O)[C@@H](C)CN([C@@H](C)CO)C3=O)cc1	38	33
C[C@@H]1CN([C@H](C)CO)C(=O)c2cccc(NS(C)(=O)=O)c2O[C@@H]1CN(C)S(=O)(=O)c1ccc(Cl)cc1	0	0
C[C@@H]1CN([C@@H](C)CO)C(=O)c2cc(-c3ccncc3)cnc2O[C@@H]1CN(C)S(=O)(=O)c1ccccc1	-10	6
CCCNC(=O)[C@H]1[C@H](CO)[C@H]2Cn3c(ccc(-c4ccncc4)c3=O)[C@@H]1N2C(=O)CC1CC1	11	8
CNC(=O)C[C@H]1CC[C@@H]2[C@H](COc3ccc(NC(=O)Nc4ccc(F)cc4)cc3C(=O)N2C)O1	5	5
CC(=O)N(C)C[C@@H]1[C@H](c2ccc(-c3ccccc3)cc2)[C@H](CO)N1C(=O)C1CC1	13	15
O=C(C1CCCCC1)N1CC2(C1)[C@@H](c1ccccc1)[C@@H](CO)N2C(=O)c1cccnc1	11	10
COc1ccc(-c2ccc3c(c2)O[C@@H](CN(C)C(=O)Nc2ccccc2F)[C@@H](C)CN([C@@H](C)CO)S3(=O)=O)cc1	?	/
COc1ccccc1-c1ccc2c(c1)O[C@H](CN(C)Cc1ccc3c(c1)OCO3)[C@H](C)CN([C@@H](C)CO)S2(=O)=O	?	/
COc1ccccc1S(=O)(=O)N1C[C@@H](O)COC[C@@H]2O[C@H](CC(=O)O)CC[C@H]21	5	-1
COCC(=O)N1CC(=O)N2[C@H](C1)[C@@H](c1ccc(C#Cc3cccc(OC)c3)cc1)[C@@H]2CO	-16	-27
C[C@H]1CN([C@@H](C)CO)C(=O)c2cc(NS(=O)(=O)c3ccc(F)cc3)ccc2O[C@H]1CN(C)Cc1ccc2c(c1)OCO2	-2	-13
C[C@H]1CCCCO[C@H](CN(C)Cc2ccc3c(c2)OCO3)[C@@H](C)CN([C@@H](C)CO)C(=O)c2cc(NC(=O)c3ccccc3)ccc2O1	?	/
C[C@@H](O)C#Cc1ccc([C@@H]2[C@H](CO)N3CCCCN(CC4CCOCC4)C[C@@H]23)cc1	28	10
C[C@@H]1CN([C@@H](C)CO)C(=O)c2cc(NC(=O)c3ccncc3)ccc2O[C@@H](C)CCCCO[C@H]1CN(C)C(=O)Cc1ccccc1	15	-2
COc1ccc(S(=O)(=O)N(C)C[C@@H]2Oc3ccc(NC(=O)Cc4cn(C)c5ccccc45)cc3C(=O)N([C@@H](C)CO)C[C@H]2C)cc1	-3	6

In a second layout: four of the compounds above.
COc1ccc(NC(=O)N[C@@H]2CC[C@H](CCn3cc(-c4ccccc4)nn3)O[C@@H]2CO)cc1
- Vaccinia stage: -2
- Vaccinia stage Venus: -5
CCCNC(=O)N1CC2(CCN(C(=O)CC)CC2)c2c(n(C)c3cc(OC)ccc23)[C@H]1CO
- Vaccinia stage: 16
- Vaccinia stage Venus: 4
COc1cccc(S(=O)(=O)N[C@@H]2CC[C@H](CCn3cc(-c4ccccn4)nn3)O[C@H]2CO)c1
- Vaccinia stage: -5
- Vaccinia stage Venus: 5
C[C@H]1CN([C@@H](C)CO)S(=O)(=O)c2ccc(Br)cc2O[C@H]1CN(C)CC1CCOCC1
- Vaccinia stage: 0
- Vaccinia stage Venus: -1

Other records follow.
SMILES	Vaccinia stage	Vaccinia stage Venus
CN(C)CC#Cc1ccc([C@H]2[C@H]3CN(C(=O)C4CCC4)CCCCN3[C@H]2CO)cc1	18	6
C[C@@H]1CN([C@H](C)CO)C(=O)c2cc(NS(=O)(=O)c3cccs3)ccc2O[C@H]1CN(C)C	3	6
CC(C)NC(=O)Nc1ccc2c(c1)C(=O)N([C@@H](C)CO)C[C@H](C)[C@H](CN(C)Cc1ccc(-c3ccccc3)cc1)O2	-2	-1
O=C(Nc1ccccc1)N1CCCCN2[C@H](CO)[C@H](c3ccc(C#CC4CC4)cc3)[C@H]2C1	?	/
COc1ccccc1-c1ccc(C2[C@@H]3CN(C(=O)c4cccnc4)C[C@H]2N3)cc1 (stereo partly drawn)	12&-8	-4&-3
COc1cccc(-c2ccc([C@H]3[C@@H](CO)N4CCCCN(CC5CCOCC5)C[C@@H]34)cc2)c1	0	-2
C[C@H]1CN([C@@H](C)CO)C(=O)c2cccc(NC(=O)CCCCCC(=O)Nc3ccccc3N)c2O[C@H]1CN(C)CC1CC1	16	7

Part of the list above, field by field.
> O=C(Nc1ccccc1)N1CCCCN2[C@H](CO)[C@H](c3ccc(C#CC4CC4)cc3)[C@H]2C1
  Vaccinia stage: ?; Vaccinia stage Venus: /

> COc1ccccc1-c1ccc(C2[C@@H]3CN(C(=O)c4cccnc4)C[C@H]2N3)cc1 (stereo partly drawn)
  Vaccinia stage: 12&-8; Vaccinia stage Venus: -4&-3

> COc1cccc(-c2ccc([C@H]3[C@@H](CO)N4CCCCN(CC5CCOCC5)C[C@@H]34)cc2)c1
  Vaccinia stage: 0; Vaccinia stage Venus: -2

> C[C@H]1CN([C@@H](C)CO)C(=O)c2cccc(NC(=O)CCCCCC(=O)Nc3ccccc3N)c2O[C@H]1CN(C)CC1CC1
  Vaccinia stage: 16; Vaccinia stage Venus: 7
